Rango dissoc inh – inhibitors of RanGTP-induced Rango-importin beta complex dissociation; 340,000 compounds, 0.071% hits; Biochemical FRET Rango-importin beta, RanGTP-induced dissociation; Potency, µM (titrated, usually from 46.1 µM), for the others: at the highest dose activity change, negative = inhibition; O95149+P62826; active means falling FRET ratio curve, often poorly fitted, with flat reads before Ran was added; inconclusive means other falling curves, or compound fluorescence or quenching; inactive means flat or rising ratio curve;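 note: potency is the fitted concentration of half-maximal effect; % of control where 0% means no effect; nearly all actives have a fitted effect of over 45% in size; -100% = wells without RanGTP and RCC1; the record marks most hits as doubtful in a second field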
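Compounds preincubate 5 min with complex of recombinant Rango and importin beta in PBS with 1 mM DTT. Ran (0.6 uM) loaded with 2 mM GTP plus 0.2 uM RCC1 starts dissociation; FRET is recorded 45 min later.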
miR-21 reporter – raises the signal of a miR-21 reporter; HeLa miR-21 FLuc reporter, luciferase, 48 h; Potency, µM (series often up to 38.3 µM), for inactives: top-dose reporter change, positive = more light; 340,000 tested, under 10 active; active = well fitted rising curve with a large enough effect; inconclusive = small, poorly fitted or top-dose-only effect; inactive = no such curve, though single readings can be large or run the other way;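 note: % of control where 0% means no effect; miR-21 action dims this reporter so a rising signal means less miR-21 action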
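HeLa cells stably expressing CMV-driven firefly luciferase with a downstream miR-21 binding sequence, endogenously expressing miR-21, were treated with titrations (up to about 40uM final) for 48 hours at 37 degree Celsius. Luciferase luminescence was read after lysis.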
Rango-impB inh – Rango-importin beta binding inhibition | Q14974 | Rango CFP/YFP FRET sensor + importin beta, 45 min | Potency, µM (top dose mostly 92.2 µM), inactives show top-dose inhibition of complex formation | 340,000 compounds, 0.031% hits | AID 540263; active = rising FRET ratio curve, often small or poorly fitted; inconclusive = mostly compound fluorescence or quenching in the first reads; inactive = flat curves in all reads;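 note: potency is the fitted concentration of half-maximal effect; 0% = DMSO wells and 100% = buffer wells lacking importin beta; nearly all actives have a fitted effect of over 15% in size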
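FRET biosensor (snurportin 1 IBB flanked by EYFP and cerulean), 50 nM, with compound 5 min, then 0.125 microM importin beta in PBS, 1 mM DTT, 0.02% Tween-20, 0.1% BSA. CFP/YFP ratio read after 45 min at room temperature; pre-read flags interference.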
GLA inh pH 4.5 – alpha-galactosidase A (human) inhibition, pH 4.5 | P06280 | purified enzyme, 4-MU-alpha-Gal fluorescence, pH 4.5 | activity change, negative = inhibition, % at 105 µM | 230,000 tested, under 10 active; inconclusive = small, poorly fitted or top-dose-only inhibition, or a rising curve; inactive = flat fitted curve, though single readings scatter; no compound was filed as active;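 note: 0% = full activity with enzyme and -100% = basal without enzyme; dose as in the result columns while the protocol names 77 µM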
Target sequence (P06280 whole entry, looked up): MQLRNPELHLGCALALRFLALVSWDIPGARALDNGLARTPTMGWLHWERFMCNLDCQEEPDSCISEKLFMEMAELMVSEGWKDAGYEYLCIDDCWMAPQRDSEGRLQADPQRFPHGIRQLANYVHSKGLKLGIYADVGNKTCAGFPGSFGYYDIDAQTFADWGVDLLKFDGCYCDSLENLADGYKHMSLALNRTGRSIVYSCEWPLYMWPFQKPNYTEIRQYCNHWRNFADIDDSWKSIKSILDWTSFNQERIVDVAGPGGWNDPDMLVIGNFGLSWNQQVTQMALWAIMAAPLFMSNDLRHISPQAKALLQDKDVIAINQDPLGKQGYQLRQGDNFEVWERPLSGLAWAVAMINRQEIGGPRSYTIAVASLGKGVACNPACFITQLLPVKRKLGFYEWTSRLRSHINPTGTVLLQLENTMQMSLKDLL
Active calls of the source: *; ? = inconclusive; . = not tested or not shown; & = joins results of further samples. A portion of the library. The share of hits here may be higher or lower than overall.

Results follow in this order: Rango dissoc inh | miR-21 reporter | Rango-impB inh | GLA inh pH 4.5
CN(C)/C=N/c1cc(=O)[nH]c(=O)n1CC1CC1
 : 9.8% | -4.9% | -0.1% | -0.6&-0.7
CC(C)(C)NC(=O)COc1ccccc1C#N
 : -5.6% | 0.7% | 2.2% | 3.0
COc1cc(OC)cc(C(=O)N2CCN(Cc3ccccc3C(F)(F)F)CC2)c1
 : -4.7% | -2.6% | -2.2% | 0.4
CN(C)S(=O)(=O)c1cccc(NC(=S)NCc2ccc3c(c2)OCO3)c1
 : -17.9% | 6.5% | -0.3% | -0.3
COC(=O)C(CCSC)NC(=O)CNC(=O)C1CCCCC1 (configuration not stated)
 : -10.1% | -3.9% | -7.5% | 3.5
C/C(N)=C(/C#N)C(=O)CSc1nnc(SCc2ccc(Cl)cc2)s1
 : 21.5%&8.0% | 0.9% | 0.2%&-0.5% | -3.9
Cc1cccc([N+](=O)[O-])c1NC(=O)CSc1nnc2ccccn12
 : -12.1% | . | 0.1% | .
Cc1cccc(NC(=O)c2ccc([N+](=O)[O-])cc2Cl)n1
 : -22.5% | -11.1% | -0.5% | 0.9
COCCCN1C(=O)c2ccc(C(=O)OCC(=O)NCCc3ccccc3)cc2C1=O
 : -8.8% | -3.0% | 0.0% | 6.3
COc1ccccc1N1CCN(S(=O)(=O)CCNC(=O)c2ccc(OC(C)C)cc2)CC1
 : -1.2% | 20.9% | 3.6% | .
COc1ccc(NS(=O)(=O)c2ccc(Oc3cccc(C(=O)O)c3)cc2)cc1
 : 18.1% | -4.4% | 2.5% | 4.0
CC(=O)Oc1ccc2occ(-c3ccccc3)c2c1
 : -0.5% | -30.6% | 2.2% | .
CC1=NN(C)C(=O)C1Cc1c(F)cccc1Cl (configuration not stated)
 : 0.1% | . | 1.4% | .
c1ccc(-c2nc(NC3CCCC3)c3ccccc3n2)cc1
 : -4.0% | 3.0% | 5.9% | .
O=C1NC(c2ccccc2)C(c2ccccc2)N1 (configuration not stated)
 : 0.1% | . | 0.4% | .

3 entries from above, arranged by their value in Rango-impB inh, highest first:
SMILES | Rango dissoc inh | miR-21 reporter | Rango-impB inh | GLA inh pH 4.5
c1ccc(-c2nc(NC3CCCC3)c3ccccc3n2)cc1 | -4.0% | 3.0% | 5.9% | .
CC1=NN(C)C(=O)C1Cc1c(F)cccc1Cl (configuration not stated) | 0.1% | . | 1.4% | .
COC(=O)C(CCSC)NC(=O)CNC(=O)C1CCCCC1 (configuration not stated) | -10.1% | -3.9% | -7.5% | 3.5

(further entries)
Results follow in this order: Rango dissoc inh | miR-21 reporter | Rango-impB inh | GLA inh pH 4.5
O=C(NC1CCCCC1)N1CCCC(c2nc(-c3cccs3)no2)C1 (configuration not stated)
 : 3.0% | 0.8% | 2.0% | -14.0
Cc1[nH]nc2c1C1(C(=O)N(Cc3ccc(Cl)cc3)c3ccccc31)C(C#N)=C(N)O2 (configuration not stated)
 : -19.3% | 9.2% | ? | -14.1
COC(=O)c1ccccc1NC(=S)N(C)C
 : 3.1% | -12.9% | -1.1% | 1.3
CCN(CC)S(=O)(=O)c1ccc(N2CCOCC2)c(NC(=O)C2CCCO2)c1 (configuration not stated)
 : 12.4% | -0.5% | 6.3% | 3.1
C/C(CC(=O)Nc1cc(Cl)ccc1Cl)=N\NC(=O)c1ccco1
 : -17.9% | -45.7% | ? | -0.9
CCn1nc(C)c(/C=N/NC(=O)Cn2nc(C)cc2C)c1C
 : 1.3% | -3.3% | 2.3% | -7.8
CCCn1c(=O)c(C(=O)NNC(=O)Cc2ccccc2)c(O)c2ccccc21
 : -8.4% | 0.9% | -0.5% | .
Cc1c(Cl)cnc(NC(=O)COC(=O)c2ccc3c(c2)OCO3)c1Cl
 : -5.9% | 1.0% | 0.3% | -5.5
CCOc1ccc2oc(C(=O)O)c(C)c2c1
 : -12.0% | -21.7% | -0.6% | -0.9
COc1ccc(C(=O)NC(CCSC)C(=O)N2CCCCCC2)cc1 (configuration not stated)
 : 0.3% | -1.3% | -2.6% | .
COc1ccc(-c2csc(Nc3ccc(C)cn3)n2)cc1OC
 : -4.7% | -30.8% | -1.4% | 0.4
O=C(NCc1ccccn1)[C@H]1C[C@@H]1[C@H](NP(=O)(c1ccccc1)c1ccccc1)c1ccccc1
 : 2.2% | -8.8% | 4.6% | -0.6&-8.5
COCCNCCOCCOc1ccc(Cl)c(C)c1
 : -0.3% | -6.1% | -0.8% | 2.5
COc1cc(/C=C/C(=O)N2C(=O)c3cccc(N)c3C2=O)cc(OC)c1OC
 : ? | -0.6% | ? | -12.6
Cc1ccc(S(=O)(=O)Nc2ccc3c(c2)CCC3)cc1
 : -6.9% | 11.0% | 1.4% | 3.7
Cc1cc(Cl)ccc1NC(=O)CCC(=O)N/N=C/c1cccnc1
 : 0.1% | 3.3% | 0.2% | .
Cc1cc(C)n(-c2nc3ccccc3nc2N2CCN(C(=O)c3ccc(Cl)cc3)CC2)n1
 : ? | -10.5% | ? | -3.2
Fc1cccc(/C=N/Nc2ncnc3nc[nH]c23)c1
 : 3.9% | -94.7% | -3.9% | 4.6
COc1ccc2cc(C(=O)N3CCCCCC3)sc(=O)c2c1OC
 : 23.8% | -14.7% | 0.2% | 7.7
Cc1ccc(S(=O)(=O)CCC(=O)Nc2ccccc2Br)cc1
 : 7.3% | -4.4% | 1.0% | .
COCC(=O)N/N=C/c1c(C)[nH]n(-c2ccccc2)c1=O
 : -5.9% | 1.8% | 0.0% | 4.5
Cc1c(C(=O)N2CCN(c3cccc(Cl)c3)CC2)cccc1[N+](=O)[O-]
 : -6.0% | -2.6% | 2.4% | 1.2
S=c1[nH]ccn1-c1c(Cl)cccc1Cl
 : 9.2% | -0.4% | 1.3% | -2.0
COc1ccc(-n2sc3c(c2=S)-c2cc(OC)ccc2NC3(C)C)cc1
 : -11.7% | -0.6% | ? | -0.5
C#CCOC(=O)C(NC(=O)c1ccccc1)=C(C)C
 : 17.5% | -6.2% | 0.0% | -2.6
O=C(CNc1cccc2ccccc12)N/N=C/C=C/c1ccco1
 : 0.9% | -0.6% | 3.1% | -4.3
O=C(Nc1ccc(Br)cn1)c1ccc([N+](=O)[O-])cc1Cl
 : 6.8% | -34.0% | 0.3% | 11.8
COC(=O)c1cc([N+](=O)[O-])c(-n2cncn2)c([N+](=O)[O-])c1
 : 0.8% | -0.7% | 2.4% | -9.0
S=c1[nH]ncn1NCc1ccc(Cl)cc1Cl
 : ? | -7.7% | -1.2% | 5.0
COC(=O)COc1ccc(S(=O)(=O)NCc2cccnc2)cc1C
 : -2.7% | -3.7% | 1.9% | 5.7
Cc1cccc(C)c1NC(=O)COC(=O)CCc1ccc(S(=O)(=O)N2CCCCC2)cc1
 : -15.3% | -3.9% | -0.1% | -5.2
COc1cccc(-n2nc3c(-n4ncc(C#N)c4N)nnc(C)c3c2C)c1
 : -3.1% | -13.3% | -2.2% | -2.1
CCNS(=O)(=O)c1ccc(CCC(=O)N2CCN(c3ccccc3F)CC2)cc1
 : 0.6% | 9.5% | 0.6% | .
O=C(NC1(C(F)(F)F)C(=O)Nc2c1c(=O)[nH]c(=O)n2Cc1ccco1)C1CC1 (configuration not stated)
 : -1.0% | -0.4% | -3.0% | -12.1
COc1ccccc1CNC(=O)CCCN1C(=O)NC2(CCCC2)C1=O
 : -7.3% | . | -1.6% | .
CC1Cc2cc(S(=O)(=O)NCCC(=O)N(C)Cc3ccccc3)ccc2N1C(=O)C1CC1 (configuration not stated)
 : -11.7% | 1.9% | 4.9% | .
Cc1csc(CNC(=O)C2CCC(=O)N(CCc3cccc(F)c3)C2)n1 (configuration not stated)
 : -3.9% | -3.4% | 0.0% | .
Cc1ccc(NC(=O)NNC(=O)c2ccc3c(c2)NC(=O)C(C)(C)O3)cc1
 : 1.0% | 2.5% | -1.4% | .
COc1ccc(C2C(C(=O)N3CCOCC3)c3ccccc3C(=O)N2c2ccc(OC)cc2)cc1 (configuration not stated)
 : 2.4% | -1.4% | -0.4% | 3.8
Cc1ccsc1C(=O)NNC(=O)c1csc(N2CCOCC2)n1
 : -9.4% | . | 4.2% | .
Cc1cc(NC(=O)CCS(=O)(=O)c2nc(-c3ccccc3)cc(C(F)(F)F)n2)no1
 : 1.8% | ? | ? | -12.2
Cc1ccc(C(=O)O)cc1NS(=O)(=O)c1ccc2ccccc2c1
 : -10.9% | 1.7% | -1.5% | .
CS(=O)(=O)Nc1ccc(C(=O)CC(=O)Nc2ccc([N+](=O)[O-])cc2)cc1
 : 0.3% | -1.8% | 6.3% | .
C[C@@H]1CN(S(=O)(=O)c2ccc3c(c2)OCCO3)CCN1S(=O)(=O)c1c(F)cccc1F
 : 14.0% | . | -0.8% | .
COC(=O)/C(=N\OCc1ccc(C#N)cc1)c1c(C)nn(C)c1C
 : -3.7% | -6.8% | -0.3% | .
CCc1cccc(OCCn2ccnc2)c1
 : -1.3% | -1.7% | 5.4% | -0.3
COC(=O)c1ccc(NC(=O)CN(C)Cc2cccc(F)c2)cc1
 : 13.2% | -2.1% | 1.2% | -6.1
CCN(CC(=O)NCC(=O)Nc1ccc(Br)cc1C)Cc1ccccc1
 : 11.8% | . | -5.3% | .
O=C(Nc1ccc(N2CCOCC2)cc1)c1ccc2nc(-c3ccco3)c(-c3ccco3)nc2c1
 : 0.2% | 0.3% | 3.4% | -3.3
CCSc1nc(N2CCOCC2)c2ccccc2n1
 : -0.1% | -12.1% | 3.3% | -6.4
Nc1nc(SCC(=O)NCc2ccc(F)cc2)[nH]c(=O)c1NC(=O)c1ccc(Cl)cc1
 : 10.8% | -5.4% | -0.4% | -2.0
O=C(CN1C(=O)c2ccccc2S1(=O)=O)NC1CCCCCC1
 : 37.7% | -14.5% | -1.5% | 2.2
CCOc1ccccc1N1CCN(CC(=O)Nc2ncc(C)s2)CC1
 : 14.0% | -0.1% | 2.7% | .
Cc1ccc(Nc2ccc(C(N)=O)cc2[N+](=O)[O-])cc1
 : 7.3% | -12.9% | 1.6% | -6.7
Cc1ccc(NC(=O)CCn2c(=O)c3cccn3c3ccccc32)cc1C
 : 7.6% | 4.5%&7.2% | 0.0% | .
c1ccc(Nc2cccc(Nc3ccccc3)c2)cc1
 : -1.6% | -59.0% | -5.9% | -10.0
CC(=O)NC(CC(=O)NCC(=O)Nc1ccc(F)c(F)c1)c1ccccc1 (configuration not stated)
 : -7.7% | -1.5% | -1.2% | .
O=C(c1ccccc1)N1CCC(=O)N(C(CO)Cc2ccccc2)CC1 (configuration not stated)
 : -24.4% | . | 0.4% | .
COc1ccc2c(c1)c1nnc(SCC(=O)N3C(C)CCCC3C)nc1n2C (configuration not stated)
 : 4.9% | -9.7% | 4.8% | -17.0
CCOC(=O)C1CCCN(Cc2nc(N)nc(Nc3ccc(C)cc3)n2)C1 (configuration not stated)
 : -22.0% | 4.9% | -2.2% | -1.9

The results go on:
Results follow in this order: Rango dissoc inh | miR-21 reporter | Rango-impB inh | GLA inh pH 4.5
CCc1ccc(C2C3=C(CCCC3=O)OC3=C2C(=O)CCC3)cc1
 : -16.0% | -7.2% | ? | -6.6
O=C(Cn1c(=O)oc2cccnc21)Nc1ccc(C(F)(F)F)cc1
 : 8.9% | -6.7% | 4.5% | 2.8
CCOc1ccc(OC(=O)c2cccnc2)cc1
 : -2.8% | -16.8% | -0.1% | -4.7
COC(=O)c1sc(-c2ccccc2)cc1NC(C)=O
 : -5.3% | -19.8% | 5.7% | -1.3
Cc1c(OC(C)C(=O)NCc2cccnc2)ccc2c3c(c(=O)oc12)CCCC3 (configuration not stated)
 : -7.4% | 6.4% | -5.3% | .
CSc1nsc(SCC(=O)NCc2ccccc2)n1
 : -3.3% | -8.7% | 4.6% | .
Cc1ccc(-n2c(Cc3cccn3C)nnc2SCC(=O)NCc2ccc3c(c2)OCO3)cc1
 : 0.7% | -3.0% | 2.3% | 5.1
Cc1ccc(C(=O)C2=C(O)C(=O)N(c3ncccn3)C2c2ccc(Br)cc2)o1 (configuration not stated)
 : ? | 9.3% | ? | 2.0

Bioassay records (PubChem BioAssay)
